Compound activity from PubChem BioAssay.
ALR inh = human ALR oxidase inhibition via reduced H2O2; 290,000 tested, 3.8% active; inhibition, % (concentration not given with the values); AID 485317; purified ALR, DTT oxidation, H2O2 HRP-luminol luminescence; P55789;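 active means mean and each replicate at 75% or more; inconclusive means only one of the two met; inactive means neither met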;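 further: stock transfer was 7.5 nL into about 7.5 µL; 0% = neutral wells and 100% = wells with inactivated enzyme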
Target sequence (P55789 whole entry, looked up): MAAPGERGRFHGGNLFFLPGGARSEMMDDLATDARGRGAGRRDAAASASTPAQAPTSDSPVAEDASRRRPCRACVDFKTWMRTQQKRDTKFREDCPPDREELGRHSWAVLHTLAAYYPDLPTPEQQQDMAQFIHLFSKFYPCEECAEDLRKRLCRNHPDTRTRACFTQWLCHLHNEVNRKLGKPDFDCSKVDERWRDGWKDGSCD
T cruzi repl = T. cruzi replication inhibition; T. cruzi beta-gal in NIH3T3, luminescence, 90 h; inhibition, % (concentration not given with the values); 300,000 tested, 1.4% active;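 active means mean inhibition across valid replicates above about 55%, limit read from the data; inconclusive means mean below that limit but half or more replicates reach it; inactive means mean below it, under half of replicates reach it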;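 further: signal also drops with host cell toxicity which is not excluded here; 0% = plate median of DMSO wells and 100% = zero luminescence signal; higher percent means less beta-gal luminescence so fewer parasites; stock transfer was 50 nL into about 50 µL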
LANA-H2B inh = blocks KSHV LANA binding to histone H2A/H2B; inhibition, % (test concentration not listed); Q9QR71; cell-free LANA-H2A/H2B peptide, fluorescence polarization; 320,000 tested, 0.6% active; in the data active means inhibition mostly above about 10%, no sharp cut-off; inactive means mostly below about 6.7%;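 further: stock transfer was 7.5 nL into about 10 µL; 0% = median of vehicle wells and 100% = median of positive control wells; one replicate is shown; the record names a cut of 25% in any replicate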
Beta apoptosis = beta cell apoptosis inhibition; 300,000 tested, 0.8% active; AID 435005; protection from apoptosis, % (no concentration beside the values); INS-1E cytokine-induced death, ATP luminescence, 48 h; percent of positive-control rescue, neutral wells zero;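 active means all replicates at 75% or more, or half of them and the mean; inconclusive means half reach 75% but not the mean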;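 further: 0% = cytokine-treated negative control wells and 100% = positive control rescue; higher means more ATP so stronger rescue from cytokine killing; wells of about 40 µL received 100 nL stock; the first replicate is given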
Beta2AR agonist = human beta-2 adrenergic receptor agonism by FAP | P07550 | Am2.2-beta2AR cells, FAP receptor internalization, flow cytometry; reference of the scale not given here | response, % (no concentration beside the values) | 340,000 tested, 0.43% active | AID 504454;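 active means response above a set limit, near 3 SD of response in nonfluorescent compounds, cut at about 42% in these data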;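 further: stock transfer was 100 nL into about 11 µL; a reference agonist was the positive control; negative values mostly stem from fluorescent compounds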
Target sequence (P07550 whole entry, looked up): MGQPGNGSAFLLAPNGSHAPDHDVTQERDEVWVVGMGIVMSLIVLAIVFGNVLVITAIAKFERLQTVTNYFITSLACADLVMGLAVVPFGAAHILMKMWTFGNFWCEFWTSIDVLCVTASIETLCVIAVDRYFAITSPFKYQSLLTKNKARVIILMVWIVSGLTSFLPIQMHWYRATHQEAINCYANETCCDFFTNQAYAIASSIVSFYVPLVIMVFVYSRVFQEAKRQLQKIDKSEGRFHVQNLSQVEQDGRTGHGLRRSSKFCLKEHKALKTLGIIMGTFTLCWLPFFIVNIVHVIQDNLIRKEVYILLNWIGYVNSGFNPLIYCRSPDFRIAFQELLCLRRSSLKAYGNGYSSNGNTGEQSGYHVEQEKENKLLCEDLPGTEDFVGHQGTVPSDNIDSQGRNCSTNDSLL
Ecoli rRNA inh = inhibitors of bacterial rRNA selective over humanized ribosomes; AID 720706; 350,000 tested, 1.6% active; GFP signal change (wild-type ribosome), % (no concentration beside the values); E. coli WT GFP vs humanized-ribosome RFP mutants, fluorescence, 24 h; active compounds read low; DMSO median 0, no signal -100;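 active means significant combined selectivity score with lowered wild-type GFP, culture density cut under 30%, mutant RFP and density less affected; inactive means any of these conditions unmet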; further: one replicate is shown; some compounds called inactive have numbers as strong as hits
Calb FLC = C. albicans growth modulation with fluconazole; C. albicans CaCi-2 (fluconazole-resistant clinical isolate) + fluconazole, Alamar Blue growth, 48 h; growth inhibition, % (concentration not given with the values); 300,000 tested, 0.57% active; AID 1979;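 active means most replicates above 75%; inconclusive means exactly half above 75%; inactive means most below 75%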;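 further: all wells also contain fluconazole at 8 µg/ml as a sub-toxic cotreatment; 0% = median of DMSO wells and 100% = median of geldanamycin control wells; wells of about 8 µL received 7.5 nL stock; the first replicate is given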
Bfl-1 A1 inh = inhibitors of the anti-apoptotic protein A1, read as caspase activation; MEF A1-2A-BIM cells, Caspase-Glo 3/7 luminescence, 3 h; percent of clofoctol response, vehicle zero; caspase activation, % (concentration not given with the values); 330,000 tested, 0.066% active; AID 2462;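 active means over half of replicate activation scores above 10%, or exactly half above 10 with the replicate mean above 10; inconclusive means replicate mean below 10 yet half the replicates above 10; inactive means over half of replicates below 10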;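 further: wells of about 30 µL received 50 nL stock; many hits fall short of the cut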
Ecoli rRNA inh OD600 = also measured in Ecoli rRNA inh; calls as there; OD600 change, %; measured here: OD600 growth;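 optical density of the mix in the first replicate; 0 = DMSO median and -100 = no signal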
Ecoli rRNA inh RFP = further read-out of Ecoli rRNA inh, marked with its call; RFP signal change, %; measured here: RFP humanized mutant strains;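 first replicate; 0 = DMSO median and -100 = no signal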
* marks the source's active call; other numbers are inactive results; u = inconclusive; x = not tested or not shown.

The opening 9 entries (preview)
SMILES	ALR inh	T cruzi repl	LANA-H2B inh	Beta apoptosis	Beta2AR agonist	Ecoli rRNA inh	Ecoli rRNA inh OD600	Ecoli rRNA inh RFP	Calb FLC	Bfl-1 A1 inh
Cc1ccc(C(=O)N2CCN(S(=O)(=O)c3ccc(Br)cc3)CC2)o1	x	1	1.6	-3	-3	-1	-10	-0.8	5	1.0
Cc1cc(-c2nnc(SCC(=O)Nc3cccc(C)c3C)n2N)n[nH]1	-3	-1	7.0	-1	0	2	5	-1.5	-10	u
O=[N+]([O-])c1c(NCCCO)cc(N2CCCCCC2)c2nonc12	x	-3	2.9	16	9	-14	-9	-14	-5	0.9
CC(C)c1cccc(C(C)C)c1NC(=O)CCN1C(=O)NC2(CCCC2)C1=O	-1	x	0.6	0	1	9	4	1.4	x	0.3
COc1ccc2oc(=N)c(C(=O)Nc3ccccc3Cl)cc2c1	-7	10	-2.2	20	3	1	-7	-0.4	4	-6.3
COc1ccc(-n2c(C)cc(=O)[nH]c2=O)cc1	-10	-9	11	-7	8	13	14	20	8	-0.1
CC(C)(C)c1cnnn1-c1cccc([N+](=O)[O-])c1	-2	6	3.1	0	-5	13	6	0.3	-13	0.3
Cc1ccc(-n2c(Cn3nc(C(F)F)cc3C(F)F)n[nH]c2=S)cc1	44	-16	-0.3	5	4	12	4	-2.6	0	-0.4
CCN1CCN(CC(=O)N/N=C/c2ccc(F)cc2F)CC1	-1	-12	-0.8	-13	5	x	x	x	-3	0.0

The whole of this part, from the start:
SMILES	ALR inh	T cruzi repl	LANA-H2B inh	Beta apoptosis	Beta2AR agonist	Ecoli rRNA inh	Ecoli rRNA inh OD600	Ecoli rRNA inh RFP	Calb FLC	Bfl-1 A1 inh
Cc1ccc(C(=O)N2CCN(S(=O)(=O)c3ccc(Br)cc3)CC2)o1	x	1	1.6	-3	-3	-1	-10	-0.8	5	1.0
Cc1cc(-c2nnc(SCC(=O)Nc3cccc(C)c3C)n2N)n[nH]1	-3	-1	7.0	-1	0	2	5	-1.5	-10	u
O=[N+]([O-])c1c(NCCCO)cc(N2CCCCCC2)c2nonc12	x	-3	2.9	16	9	-14	-9	-14	-5	0.9
CC(C)c1cccc(C(C)C)c1NC(=O)CCN1C(=O)NC2(CCCC2)C1=O	-1	x	0.6	0	1	9	4	1.4	x	0.3
COc1ccc2oc(=N)c(C(=O)Nc3ccccc3Cl)cc2c1	-7	10	-2.2	20	3	1	-7	-0.4	4	-6.3
COc1ccc(-n2c(C)cc(=O)[nH]c2=O)cc1	-10	-9	11	-7	8	13	14	20	8	-0.1
CC(C)(C)c1cnnn1-c1cccc([N+](=O)[O-])c1	-2	6	3.1	0	-5	13	6	0.3	-13	0.3
Cc1ccc(-n2c(Cn3nc(C(F)F)cc3C(F)F)n[nH]c2=S)cc1	44	-16	-0.3	5	4	12	4	-2.6	0	-0.4
CCN1CCN(CC(=O)N/N=C/c2ccc(F)cc2F)CC1	-1	-12	-0.8	-13	5	x	x	x	-3	0.0
CC(NC(=O)COC(=O)Cc1ccccc1[N+](=O)[O-])c1ccccc1 (centres undefined)	-1	-1	-2.7	0	6	1	4	3.7	19	2.7
CCS(=O)(=O)N1CCC(NC(=O)C2CCCCC2)CC1	-3	1	-2.4	-1	5	x	x	x	-10	-0.1
COc1ccc(C(=O)NC2CCCCC2)cc1OC1CCN(C(C)C)CC1	0	6	2.6	-5	3	13	18	-1.4	-4	0.9
O=C(O)CN1C(=O)CC(Cc2ccccc2)C1=O (centres undefined)	2	-12	5.4	-1	-1	x	x	x	-6	-0.6
O=C(Cc1cccs1)Nc1nnc(Cc2ccccc2)s1	-8	x	1.0	-1	3	x	x	x	13	-0.1
CCCCN1CC[C@H]2C=CC[C@@H](C(=O)N3CCOCC3)[C@H]2C1=O	-3	-13	-0.6	-12	-1	9	5	-2.8	2	0.7
Cc1ccc2[nH]c(=O)c(NC(N)=S)nc2c1	x	-13	7.1	3	1	x	x	x	-18	0.2
COC(=O)c1ccccc1NC(=O)c1ccc(NS(C)(=O)=O)cc1	1	6	-2.6	-4	3	x	x	x	-2	0.6
Cc1cc(Cl)ccc1NC(=S)Nc1cccnc1	22	-6	0.8	-2	-1	x	x	x	-6	-0.1
CC(C)CC[n+]1ccn(-c2nc3ccccc3nc2[N-]S(=O)(=O)c2ccccc2)c1	-12	-7	1.5	0	-8	x	x	x	-7	-0.3
CCNc1nc2c(c(=O)n(C)c(=O)n2C)n1CCCc1ccccc1	15	8	2.1	8	3	7	0	-1.2	-1	0.8
COc1ccc(C2=Nn3c(nnc3-c3ccccc3)SC2)cc1OC	-4	-13	-2.2	-6	-4	10	7	1.1	1	-0.1
Cc1c(F)cccc1NS(=O)(=O)c1ccc2c(c1)c(C)cc(=O)n2C	-7	8	0.9	1	0	-11	-20	-3.7	7	-1.3
CCOC(=O)CSCC(=O)N1CCC(Cc2ccccc2)CC1	-7	-4	0.2	-6	66*	-2	-6	0.9	-3	0.8
CCCCN1CC2=C(C1=O)C(c1ccc(O)cc1)NC(=O)N2C (centres undefined)	-10	-11	-4.6	-4	3	15	-2	4.1	2	-0.2
COc1cccc(NC(=O)CN(C)C(=O)c2cccc(S(=O)(=O)Nc3ccccc3OC)c2)c1	3	x	1.7	1	2	0	-5	0.4	x	0.8
SMILES	ALR inh	T cruzi repl	LANA-H2B inh	Beta apoptosis	Beta2AR agonist	Ecoli rRNA inh	Ecoli rRNA inh OD600	Ecoli rRNA inh RFP	Calb FLC	Bfl-1 A1 inh
O=C(CSc1nnc(-c2ccccc2)o1)OCc1ccccc1	2	x	1.1	-6	-6	x	x	x	-9	0.1
O=[N+]([O-])c1ccccc1/C=N/n1c(-c2ccccc2)n[nH]c1=S	7	-1	4.4	5	11	7	-10	2.5	15	0.2
Cc1cccc(C(=O)N2CCN(c3ccc([N+](=O)[O-])c(NCc4ccco4)c3)CC2)c1	-7	x	-0.2	12	-4	x	x	x	8	-0.2
CCC(c1ccc(O)cc1)C(CC)c1ccc(O)cc1 (centres undefined)	-2	x	0.1	0	-2	-60	-79	-17	x	0.9
CN(Cc1cccc(F)c1)C(=O)c1ccc(NS(=O)(=O)c2ccc3[nH]c(=O)[nH]c3c2)cc1	-12	-23	-0.8	-3	-4	9	1	0.3	15	-0.7
COc1ccc2cc(C(=O)C3CCCN(C(=O)c4cccnc4)C3)ccc2c1 (centres undefined)	-6	-18	2.6	-2	-7	-12	-21	-1.9	-4	0.3
Cc1nc(-c2ccc(Cl)cc2)sc1C1(C)CC(c2ccc(F)cc2)=NO1 (centres undefined)	2	-16	0.9	-19	-2	4	-13	-3.2	1	-0.7
Cc1c(C=O)c2ccccn2c1C(=O)c1cccs1	-3	1	4.1	4	2	5	-6	-9.8	-4	0.4
CCOC(=O)N1CCC(N2C(=O)c3ccccc3C2Nc2cc(OC)c(OC)c(OC)c2)CC1 (centres undefined)	9	-5	1.3	-5	0	1	-2	5.8	7	-0.1
Cc1cc(C)cc(OCc2nnc(SCC(=O)NC3CC3)n2C)c1	1	-3	8.2	4	5	0	-3	2.1	-1	1.9
COc1ccc(-c2nc(C#N)c(N3CCC(C(N)=O)CC3)o2)cc1	-4	5	-1.1	-3	1	x	x	x	-8	0.4
CN(C(=S)Nc1ccccc1F)C1(c2ccccc2Cl)CCCCC1=O (centres undefined)	0	9	2.7	-4	-2	x	x	x	-30	-0.4
O=C(COC(=O)c1cccs1)NCCCc1ccccc1	-5	-6	3.3	-4	-13	-3	-1	2.4	-5	0.4
Cc1ccc(N2C(=O)NC(NS(=O)(=O)c3ccccc3)(C(F)(F)F)C2=O)cc1C (centres undefined)	3	-6	-1.7	0	0	-17*	-0.5*	4.3*	-2	0.2
COc1ccc(-c2ncc3ccccn23)cc1	x	24	1.2	0	-3	x	x	x	-12	-0.1
COC(=O)c1c(C)[nH]c(C(=O)N2CCN(c3ccc(OC)cc3)CC2)c1C	96*	-6	-7.0	x	x	4	3	0.6	11	-0.2
OCCN(Cc1ccccc1)C(=S)Nc1ccc(F)cc1	-6	-3	0.6	-5	2	0	2	-2.5	-1	-0.8
O=C(NCc1ccccc1Cl)C1CCCN1C(=O)Nc1ccccc1 (centres undefined)	x	0	3.9	-5	4	12	11	-0.2	10	0.4
Cc1c([N+](=O)[O-])c(C(=O)NC2CCCCC2)nn1C	-2	7	-5.6	-1	-5	27	22	2.6	-4	-0.1
O=C(c1ccc(Br)cc1)N1CCC(C(=O)N2CCN(c3ccccc3)CC2)CC1	35	3	-3.8	-8	10	-16	-11	0.4	-18	0.8
Cc1noc(NS(=O)(=O)c2ccc(N/C=C\C(=O)c3ccccc3)cc2)c1C	13	-3	-2.1	-5	8	-13	-11	3.3	-7	-5.4
Cc1cccc(NC(=S)Nc2ccc(Oc3ccccc3)cc2)n1	x	-14	3.1	6	-5	x	x	x	-9	-1.5
Cc1cc(OC(C)C(=O)NCCCn2ccnc2)c2c(C)c(C)c(=O)oc2c1 (centres undefined)	-3	-3	-2.2	-2	-4	1	2	-0.6	-2	0.1
CCOC(=O)c1cc(-c2ccccc2)sc1NC(=O)CN1C(=O)c2ccccc2C1=O	-16	10	3.6	-1	-12	x	x	x	2	-1.0
COc1ccc(NC(=O)CN(C)C(=O)c2ccccc2SCC(=O)N2CCCC2)cc1	1	1	19*	-4	-4	15	8	3.6	-7	0.6
SMILES	ALR inh	T cruzi repl	LANA-H2B inh	Beta apoptosis	Beta2AR agonist	Ecoli rRNA inh	Ecoli rRNA inh OD600	Ecoli rRNA inh RFP	Calb FLC	Bfl-1 A1 inh
FC(F)(F)c1cnc2c(c1)[nH]c(=S)n2-c1ccc(Cl)cc1	-4	-3	-3.9	32	13	4	0	2.0	2	-0.1
Cc1n[nH]c(=O)n1-c1ccc(C(C)(C)C)cc1	-2	-36	0.7	x	4	10	4	-0.1	-16	-0.2
Cc1cc(Cl)ccc1NC(=O)COC(=O)c1cc([N+](=O)[O-])ccc1N1CCOCC1	1	5	-0.9	-8	26	17	16	2.6	2	0.0
CCN(C(=O)CSc1nnc(Cn2nnc3ccccc32)o1)c1nc(-c2ccccc2)cs1	x	16	8.2	31	-3	x	x	x	-2	-1.1
O=C(COC(=O)c1ccco1)Nc1cccc(S(=O)(=O)N2CCCCC2)c1	1	x	1.4	-3	-4	0	-4	-2.6	x	-0.2
Cc1ccc(C(=O)NNC2=NCCC2)cc1	6	-4	1.7	2	13	x	x	x	4	0.0

The list is partial (hit frequency here may not be typical).
